Source: PubChem (National Center for Advancing Translational Sciences (NCATS))
Six1-Eya2 inh = inhibitors of human Six1/Eya2 interaction | AlphaScreen GST-Six1/His-Eya2 binding, biochemical; active compounds read low; control for the full effect not named in the record | activity change, % (no concentration beside the values) | 360,000 tested, 0.56% active | AID 651725; in the data active = activity change below about -65%; inconclusive = about -30% to -65%; inactive = above about -30%; also: % is scaled to controls: 0 for no effect and ±100 for the full control effect
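AlphaScreen with GST-Six1 and His-Eya2 (5X mix: 250 nM and 500 nM), glutathione donor and nickel acceptor beads; buffer 50 mM Tris pH 8.0, 300 mM NaCl, 1 mM TCEP; 1 h at 37 C in the dark.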
TRPML1 agonist = agonists of human TRPML1 channel | Q9GZU1 | TRPML1-expressing cells, Ca2+ dye fluorescence, FDSS; host cell line not named in the record; reference of the full effect not given here | activation, % (no concentration beside the values) | 410,000 tested, 0.12% active; in the data active = activation above about 50%; inconclusive = about 30% to 50%; inactive = below about 30%; also: 0% is about no effect; the text of the record puts the active cut at 80%
Target sequence (Q9GZU1 whole entry, looked up): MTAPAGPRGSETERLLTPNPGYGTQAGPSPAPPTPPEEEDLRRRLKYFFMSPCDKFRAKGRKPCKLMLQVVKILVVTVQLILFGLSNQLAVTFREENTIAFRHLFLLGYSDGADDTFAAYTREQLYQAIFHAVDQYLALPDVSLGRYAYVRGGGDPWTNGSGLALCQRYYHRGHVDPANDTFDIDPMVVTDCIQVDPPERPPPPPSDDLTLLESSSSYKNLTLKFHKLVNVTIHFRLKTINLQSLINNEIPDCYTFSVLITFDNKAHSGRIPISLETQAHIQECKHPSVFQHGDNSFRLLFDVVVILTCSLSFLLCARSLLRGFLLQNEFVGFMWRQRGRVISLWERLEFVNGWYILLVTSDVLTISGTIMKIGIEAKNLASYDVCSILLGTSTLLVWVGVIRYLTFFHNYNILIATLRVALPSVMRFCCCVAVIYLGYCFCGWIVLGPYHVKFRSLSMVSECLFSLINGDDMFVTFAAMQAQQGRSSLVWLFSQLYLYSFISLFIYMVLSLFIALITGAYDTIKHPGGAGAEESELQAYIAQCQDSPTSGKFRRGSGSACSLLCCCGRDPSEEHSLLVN
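Kinetic FDSS Ca2+ read in Tet-induced TRPML1-DL cells (ABD Ca8 dye plus quencher, 45-90 min RT loading): baseline, then compound, then 110 s agonist window; EC80 agonist 54-4 at 4uM final added afterwards for a 110 s antagonist window.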
TRPML1 blocker = human mucolipin-1 channel inhibition; AID 624415; Q9GZU1; activity change, negative = inhibition, % (test concentration not listed); TRPML1-inducible cells, Ca2+ dye fluorescence, FDSS; active compounds read low; inhibition of EC80 agonist-evoked calcium signal; 390,000 tested, 0.02% active; in the data active means activity change below about -50%; inconclusive means about -30% to -50%; inactive means above about -30%;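 also: stimulus is agonist 54-4 at its EC80 concentration; % is scaled to controls: 0 for no effect and ±100 for the full control effect; compound concentration not given in the record; the text of the record puts the active cut at -80%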
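TRPML1-DL cells, Tet-induced overnight (~16 h, 37 °C) at 1,500 cells/well, were loaded with Ca8 no-wash dye plus quencher for 45-90 min at room temperature. Compounds were pinned during FDSS kinetic reading; agonist 54-4 at EC80 (4 uM final) then added.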
D2 PAM = positive allosteric modulators of human D2 dopamine receptor; 360,000 tested, 0.23% active; DiscoveRx D2 beta-arrestin cells, luminescence, 90 min; 100% = 57 uM dopamine signal; P14416; potentiation, % (concentration not given with the values); AID 624464; active = potentiation of 50% or more; inconclusive = 30% to 50%; inactive = 30% or less;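 also: compound concentration not given in the record; tested on top of an EC20 dose of dopamine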
Target sequence (P14416 whole entry, looked up): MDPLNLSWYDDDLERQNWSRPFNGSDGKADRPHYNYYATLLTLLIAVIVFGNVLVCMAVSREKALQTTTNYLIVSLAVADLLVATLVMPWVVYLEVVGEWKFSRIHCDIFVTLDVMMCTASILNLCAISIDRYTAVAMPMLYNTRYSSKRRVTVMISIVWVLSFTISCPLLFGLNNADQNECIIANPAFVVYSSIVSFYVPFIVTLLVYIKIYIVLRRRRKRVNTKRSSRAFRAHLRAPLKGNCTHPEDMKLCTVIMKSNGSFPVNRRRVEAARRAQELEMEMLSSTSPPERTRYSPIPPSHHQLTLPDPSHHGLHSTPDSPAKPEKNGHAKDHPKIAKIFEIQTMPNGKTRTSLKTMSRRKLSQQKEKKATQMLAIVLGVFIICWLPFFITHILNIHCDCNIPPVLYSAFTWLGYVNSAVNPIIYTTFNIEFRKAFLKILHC
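PathHunter D2 cells, attached overnight at 37 deg C, received compound in DMSO plus dopamine at EC20 (50 nM final) for 90 min at 37 deg C. Beta-arrestin recruitment was read as luminescence after 1 h with detection reagent at ambient temperature.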
CtBP-E1A inh = blocks the CtBP interaction with E1A; activity change, % (concentration not given with the values); AlphaScreen GST-E1A/His-CtBP binding, 1536-well; active compounds read low; control for the full effect not named in the record; AID 651724; 340,000 tested, 0.49% active; in the data active means activity change below about -65%; inconclusive means about -30% to -65%; inactive means above about -30%; also: % is scaled to controls: 0 for no effect and ±100 for the full control effect
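Steps: dispense buffer (Tris pH 8.0, NaCl 300 mM, TCEP 1 mM, BSA, Tween 20); add 5X protein mix (GST-E1A, His-CtBP, 125 nM each); pin 23 nL compound; 2 h at 37 °C, dark; add 5X beads (50 ug/mL); 1 h; read.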
TRPV1 PAM = human TRPV1 potentiation. 320,000 tested, 0.02% active. potentiation, % at 8.33 µM. TRPV1-expressing cells, Fluo-8 calcium influx, capsaicin EC20 potentiation; host cell line not named in the record; control for the full effect not named in the record; active means potentiation above 80%; inconclusive means 30% to 80%; inactive means below 30%; also: 0% is about no effect
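Cells expressing TRPV1 were dye-loaded with Fluo-8 and read kinetically: 10 s baseline, 3 min after compound (agonist portion), then 2 min after EC20 capsaicin (allosteric enhancer portion). Calcium-bound dye fluorescence at 480/520 nm.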
* marks the source's active call; other numbers are inactive results; & = joins results of further samples.

For Cn1cc(S(=O)(=O)N2CCN(c3ccccc3)CC2)c(=O)n(C)c1=O the results were Six1-Eya2 inh 2, TRPML1 agonist -0.5, TRPML1 blocker -2, D2 PAM -4, CtBP-E1A inh -9 and TRPV1 PAM 3.
O=C(Nc1ccc2c(c1)C(=O)NC2=O)c1ccc2ncsc2c1 was read as Six1-Eya2 inh 0, TRPML1 agonist -0.5, TRPML1 blocker -7, D2 PAM 0, CtBP-E1A inh 2 and TRPV1 PAM 1.
Screening O=C(Nc1ccnn1C1CCN(C(=O)c2ccccc2C(F)(F)F)CC1)C1CC1 returned Six1-Eya2 inh 0, TRPML1 agonist 0.0, TRPML1 blocker -3, D2 PAM -12, CtBP-E1A inh 5 and TRPV1 PAM inconclusive.
`CCOC(=O)C1=NN(c2ccccc2)C2C(=O)N(c3ccccc3OC)C(=O)C12` (stereo unspecified) gave Six1-Eya2 inh 1, TRPML1 agonist 0.8, TRPML1 blocker 16, D2 PAM -3, CtBP-E1A inh 12 and TRPV1 PAM 25.
Screening CC(=O)Nc1cccc(-c2ccnc3c2CC(C(=O)NCc2ccncc2)O3)c1 (stereo unspecified) returned Six1-Eya2 inh -2, TRPML1 agonist -0.6, D2 PAM 4 and CtBP-E1A inh 0.
For O=C(NCCCn1ccnc1)c1cccnc1 the results were Six1-Eya2 inh 5, TRPML1 agonist -0.2, TRPML1 blocker 2, D2 PAM 3, CtBP-E1A inh 4 and TRPV1 PAM 11.
For COc1ccc(OC)c(CCNC(=O)CCCc2nnc3n(C)c(=O)c4sccc4n23)c1 the results were Six1-Eya2 inh inconclusive, TRPML1 agonist -0.4&4.8, TRPML1 blocker -1&8, D2 PAM -1, CtBP-E1A inh inconclusive and TRPV1 PAM -9.
`COc1cccc(C(=O)c2ccncc2C(=O)O)c1OC` gave Six1-Eya2 inh -3, TRPML1 agonist -0.7, TRPML1 blocker -9, D2 PAM -3 and CtBP-E1A inh -2.
O=C(CSc1nccc(=O)[nH]1)NC1CCCC1 was read as Six1-Eya2 inh 5, TRPML1 agonist 0.0, TRPML1 blocker 26, D2 PAM -2, CtBP-E1A inh 4 and TRPV1 PAM 2.
Cc1nnc(NCc2ccncc2)c2ccccc12 was read as Six1-Eya2 inh -12, TRPML1 agonist 0.0, TRPML1 blocker 29, D2 PAM -3 and CtBP-E1A inh -7.
`O=C(NCC(c1cccs1)N1CCOCC1)c1cc([N+](=O)[O-])cc([N+](=O)[O-])c1` (stereo unspecified) gave Six1-Eya2 inh 9, TRPML1 agonist -0.5, TRPML1 blocker -6, D2 PAM inconclusive, CtBP-E1A inh 0 and TRPV1 PAM 13.
For CC(=O)c1c(N2CCN(CCO)CC2)nc(=S)n(-c2ccccc2)c1C the results were Six1-Eya2 inh -2, TRPML1 agonist -0.5, TRPML1 blocker -6, D2 PAM -6, CtBP-E1A inh -3 and TRPV1 PAM 3.
Screening COc1ccc(-c2nc3ccc(Cl)cn3c2Cc2ccccc2)cc1OC returned Six1-Eya2 inh -4, TRPML1 agonist -0.5, TRPML1 blocker -7, D2 PAM -9 and CtBP-E1A inh 1.
Screening CS(=O)(=O)C1=NSC2=NC(=O)/C(=C\c3ccc(OC(=O)c4ccco4)c(Br)c3)C(=N)N21 returned Six1-Eya2 inh -10, TRPML1 agonist -0.1, TRPML1 blocker 28, D2 PAM -9 and TRPV1 PAM -4.
For CCC(C)C(NC(=O)c1ccccc1NC(=O)c1ccc(C)cc1)C(=O)O (stereo unspecified) the results were Six1-Eya2 inh 1, TRPML1 agonist 0.6, TRPML1 blocker -17, D2 PAM -5 and TRPV1 PAM 7.
Screening CCCC(C)c1oc(=O)cc(O)c1C (stereo unspecified) returned Six1-Eya2 inh -1, TRPML1 agonist 0.2, TRPML1 blocker 7, D2 PAM 1 and CtBP-E1A inh 4.
`COc1cc(/C=C(\C#N)c2ccccn2)cc(OC)c1O` gave Six1-Eya2 inh -5, TRPML1 agonist 20, TRPML1 blocker 30, D2 PAM -12, CtBP-E1A inh -9 and TRPV1 PAM 15.
For Cc1nccn1CC(=O)N/N=C/c1c[nH]c2ccccc12 the results were Six1-Eya2 inh -8, TRPML1 agonist 0.3, TRPML1 blocker 37, D2 PAM -20, CtBP-E1A inh -12 and TRPV1 PAM -10.
Cc1cc(N2CCCCC2)nc(-c2ccc(Br)cc2)n1 was read as Six1-Eya2 inh 6, TRPML1 agonist 2.8, TRPML1 blocker 10, D2 PAM -2 and TRPV1 PAM 5.
`CC1CCCCN1CCCNc1c(C=O)c(=O)[nH]c2ccccc12` (stereo unspecified) gave Six1-Eya2 inh 9, TRPML1 agonist -0.2, TRPML1 blocker -3, D2 PAM 1, CtBP-E1A inh 10 and TRPV1 PAM -4.

Entries above that contain a thiophene ring, fused or not:
For COc1ccc(OC)c(CCNC(=O)CCCc2nnc3n(C)c(=O)c4sccc4n23)c1 the results were Six1-Eya2 inh inconclusive, TRPML1 agonist -0.4&4.8, TRPML1 blocker -1&8, D2 PAM -1, CtBP-E1A inh inconclusive and TRPV1 PAM -9.
`O=C(NCC(c1cccs1)N1CCOCC1)c1cc([N+](=O)[O-])cc([N+](=O)[O-])c1` (stereo unspecified) gave Six1-Eya2 inh 9, TRPML1 agonist -0.5, TRPML1 blocker -6, D2 PAM inconclusive, CtBP-E1A inh 0 and TRPV1 PAM 13.

(more compounds)
`N#Cc1c(NCCCO)nc(-c2ccco2)c2c1CCCC2` gave Six1-Eya2 inh 19, TRPML1 agonist 0.5, TRPML1 blocker -23, D2 PAM -17, CtBP-E1A inh 15 and TRPV1 PAM 14.
For CCN(CC)S(=O)(=O)c1ccc(C(=O)NCC(=O)N/N=C/c2ccccc2OC)cc1 the results were Six1-Eya2 inh -2, TRPML1 agonist 0.4, TRPML1 blocker 8, D2 PAM -22, CtBP-E1A inh -6 and TRPV1 PAM 2.
`COc1ccccc1NC(=O)c1ccccc1C(=O)N(C)Cc1ccccc1` gave Six1-Eya2 inh 1, TRPML1 agonist 0.0, TRPML1 blocker 5, D2 PAM -22 and CtBP-E1A inh 2.
Screening Cc1c(Cl)cccc1NC(=S)N1CCOCC1 returned Six1-Eya2 inh 2, TRPML1 agonist 0.4, TRPML1 blocker -8, D2 PAM 0, CtBP-E1A inh 7 and TRPV1 PAM -4.
Screening N#CCCSc1ccccc1NC(=O)c1cc(=O)c2ccccc2o1 returned Six1-Eya2 inh 1, TRPML1 agonist -0.6, TRPML1 blocker 38, D2 PAM -7 and TRPV1 PAM 10.
For CC1CC(C)CN(C(=O)COC(=O)c2cc([N+](=O)[O-])ccc2N2CCOCC2)C1 (stereo unspecified) the results were Six1-Eya2 inh -9, TRPML1 agonist -0.4, TRPML1 blocker -10, D2 PAM 2, CtBP-E1A inh -1 and TRPV1 PAM 3.
Screening CCOC(=O)c1cc(-c2cccs2)[nH]n1 returned Six1-Eya2 inh -2, TRPML1 agonist 1.1, TRPML1 blocker 19, D2 PAM -2, CtBP-E1A inh -4 and TRPV1 PAM -7.
C=CCOc1c(Cl)cc(CNc2nccs2)cc1OC was read as Six1-Eya2 inh 2, TRPML1 agonist -1.0, TRPML1 blocker 21, D2 PAM -21, CtBP-E1A inh 4 and TRPV1 PAM 23.
NC1=NC(c2ccccc2C(F)(F)F)N(c2ccc(F)c(Cl)c2)C(N)=N1 (stereo unspecified) was read as Six1-Eya2 inh -2, TRPML1 agonist 1.4, TRPML1 blocker -10, D2 PAM -4, CtBP-E1A inh -2 and TRPV1 PAM -8.
`Cc1ccc(NC(=O)COC(=O)c2cc(=O)c3cc(F)ccc3o2)cc1` gave Six1-Eya2 inh 6, TRPML1 agonist 4.0, TRPML1 blocker -5, D2 PAM -5, CtBP-E1A inh 8 and TRPV1 PAM -2.
Screening Cc1ccc(NC(=S)N(Cc2ccccc2)Cc2cccs2)c(C)c1 returned Six1-Eya2 inh 17, TRPML1 agonist 0.0, TRPML1 blocker -7, D2 PAM 1, CtBP-E1A inh -4 and TRPV1 PAM -5.
`CCCn1nnc(NC(=S)NC(=O)C(C)(C)C)n1` gave Six1-Eya2 inh 0, TRPML1 agonist 0.4, TRPML1 blocker -8, D2 PAM -19, CtBP-E1A inh -4 and TRPV1 PAM -8.
`CCOC(=O)C(C(=O)OCC)C1CCS(=O)(=O)C1` (stereo unspecified) gave Six1-Eya2 inh 3, TRPML1 agonist -0.4, TRPML1 blocker -5, D2 PAM -2, CtBP-E1A inh -5 and TRPV1 PAM 23.
CCC(C)Sc1ccc([C@@H]2[C@H]3C(=O)N(C)C(=O)[C@H]3[C@]3(C(=O)OC)CCCN23)cc1 (stereo partly specified) was read as Six1-Eya2 inh 6, TRPML1 agonist -0.2, TRPML1 blocker 9, D2 PAM -12 and CtBP-E1A inh -11.
COc1cc(NC(=O)c2cc(C(C)C)on2)cc(OC)c1OC was read as Six1-Eya2 inh 5, TRPML1 agonist -0.6, TRPML1 blocker -3, D2 PAM -11 and CtBP-E1A inh -6.
For CS(=O)(=O)N(CC(=O)NCC1CCCO1)c1cccc(Cl)c1 (stereo unspecified) the results were Six1-Eya2 inh 0, TRPML1 agonist 0.9, TRPML1 blocker -17, D2 PAM -14, CtBP-E1A inh 5 and TRPV1 PAM 1.
For O=C(CC12CC3CC(CC(C3)C1)C2)NCC(=O)OCc1cc(=O)oc2ccc3ccccc3c12 the results were Six1-Eya2 inh 2, TRPML1 agonist -0.2, TRPML1 blocker -3, D2 PAM -2, CtBP-E1A inh 3 and TRPV1 PAM -6.
Screening Cn1ncc(Oc2ccc([N+](=O)[O-])cc2)c(Cl)c1=O returned Six1-Eya2 inh 2, TRPML1 agonist -0.3, TRPML1 blocker 7, D2 PAM 3, CtBP-E1A inh 0 and TRPV1 PAM -14.
`COc1ccc(S(=O)(=O)N2CCOCC2)cc1NC(=O)c1cccs1` gave Six1-Eya2 inh inconclusive, TRPML1 agonist 3.5, TRPML1 blocker 11, D2 PAM -3, CtBP-E1A inh inconclusive and TRPV1 PAM 4.
Screening COc1ccc(S(=O)(=O)N2CCCC(C(=O)NCc3ccncc3)C2)cc1Cl (stereo unspecified) returned Six1-Eya2 inh -3, TRPML1 agonist 0.0, TRPML1 blocker -1, D2 PAM -1, CtBP-E1A inh -1 and TRPV1 PAM 12.

Arranged by formula weight (rising): some entries from above.
`CCCn1nnc(NC(=S)NC(=O)C(C)(C)C)n1` gave Six1-Eya2 inh 0, TRPML1 agonist 0.4, TRPML1 blocker -8, D2 PAM -19, CtBP-E1A inh -4 and TRPV1 PAM -8.
For CS(=O)(=O)N(CC(=O)NCC1CCCO1)c1cccc(Cl)c1 (stereo unspecified) the results were Six1-Eya2 inh 0, TRPML1 agonist 0.9, TRPML1 blocker -17, D2 PAM -14, CtBP-E1A inh 5 and TRPV1 PAM 1.
Screening COc1ccc(-c2nc3ccc(Cl)cn3c2Cc2ccccc2)cc1OC returned Six1-Eya2 inh -4, TRPML1 agonist -0.5, TRPML1 blocker -7, D2 PAM -9 and CtBP-E1A inh 1.
For O=C(CC12CC3CC(CC(C3)C1)C2)NCC(=O)OCc1cc(=O)oc2ccc3ccccc3c12 the results were Six1-Eya2 inh 2, TRPML1 agonist -0.2, TRPML1 blocker -3, D2 PAM -2, CtBP-E1A inh 3 and TRPV1 PAM -6.
